# Bioassay records deposited in PubChem BioAssay by Center for Chemical Genomics, University of Michigan.
# CDC25B CDK2 inh: human CDC25B-CDK2/CyclinA binding inhibition | P30305+P24941 | hit rate 0.72% among 94,000 | z-score (no concentration beside the values) | HTRF CDC25B-CDK2/CyclinA binding, anti-His/anti-Flag; hits give high values;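 further: score is relative to mean and SD of negative controls; strong numbers were not always called active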
# TAR Tat displ: HIV-1 TAR-Tat binding disruption; hit rate 0.6% among 100,000; HIV-1 TAR RNA, Tat peptide displacement FRET; hits give high values; z-score (concentration not given with the values);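 further: score is relative to mean and SD of negative controls; some compounds called inactive have numbers as strong as hits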
# Active calls of the source: *; / = no result given.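 How the source made its calls: active means z-score from 3 up in half or more of its runs; inactive means the rest.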
smiles,CDC25B CDK2 inh,TAR Tat displ
C=CCOC(=O)C1=C(C)Nc2nc(SCC=C)[nH]c(=O)c2C1c1cccnc1 (stereo unspecified),-1.77,1.57
Cc1ccc(S(=O)(=O)OC2CO[C@H]3[C@@H]2OC[C@H]3OS(=O)(=O)c2ccc(C)cc2)cc1 (stereo partly specified),-0.93,/
C=CCNc1oc(-c2ccc(COc3cccc(C)c3)o2)nc1C#N,-1.23,0.24
CCOC(=O)c1cc(C#N)c(Sc2n[nH]c(C(C)(C)C)n2)nc1C(F)(F)F,-1.74,/
O=C(CSc1nnc(-c2ccncc2)o1)c1ccc(-c2ccccc2)cc1,-6.73,/
CC(C)COC(=O)NC(C)(C)COC(=O)Nc1ccc(Cl)cc1,-0.24,0.25
O=C(CN1Cc2ccccc2C1=O)Nc1ccccc1,/,0.47
N#Cc1cccn1-c1ccccc1F,/,0.6
CCCN1CCN(C(=O)c2nn(C)c3c2CS(=O)(=O)c2ccccc2-3)CC1,0.72,-0.12
CCCCn1cc(S(=O)(=O)c2ccccc2)c(=O)c2cc(F)ccc21,-1.89,-2.16
O=C(CCCn1ncn2c(cc3occc32)c1=O)NCCc1ccccc1,0.03,-0.46
CCN1CCN(c2nc(N3CCN(C)CC3)nc3c2cnn3C)CC1,/,1.34
COc1ccc(CNS(=O)(=O)c2cnc[nH]2)cc1,-1.96,-0.44
CC(=O)c1cc([N+](=O)[O-])c(Sc2ccc(Cl)cc2)s1,1.11,/
CCCCCCn1c(CN2CCOCC2)nc2ccccc21,0.15,-1.72
Cc1nn2c(=O)cc(CSCC(=O)Nc3ccccc3Cl)nc2s1,/,0.22
COc1cccc(C2C(C(=O)OC3CCCCC3)=C(C)NC3=C2C(=O)CC(C)(C)C3)c1 (stereo unspecified),-3.69,1.68
COc1ccc(C2C(C(=O)c3cccs3)=C(O)C(=O)N2Cc2cccnc2)cc1 (stereo unspecified),-0.69,2.78
COc1ccc(Nc2nc(NCCO)nc3c2cnn3C)cc1Cl,/,0.61
CCCOc1ccc(C2c3c(oc4ccc(F)cc4c3=O)C(=O)N2CCCN(C)C)cc1OCC (stereo unspecified),-1.66,1.38
COc1ccccc1Nc1nc(-c2cc3c(ccc4ccccc43)oc2=O)cs1,-1.03,/
CC(C)Cc1nc2ccccc2n1Cc1ccc(F)cc1,-0.22,-0.27
CCCCNC(=O)c1cc2c(s1)-c1ccccc1SC2,-1.24,2.4
CC1CN(C(=O)C2CCCCC2)C(C)CN1C(=O)C1CCCCC1 (stereo unspecified),-0.42,/
Cc1cc(-c2ccc(C)c(S(=O)(=O)Nc3ccccc3C)c2)on1,/,0.63
COc1cc(C2CC(=O)Nc3c2ccc2ccccc32)cc(Cl)c1O (stereo unspecified),0.97,0.17
Cc1ccc(C(CNC(=O)c2oc3ccc(Br)cc3c2C)N2CCCCC2)o1 (stereo unspecified),-1.95,0.17
COC(=O)c1ccc(C2CC(=O)NC3=C2C(=O)CC(c2ccc(OC)c(OC)c2)C3)cc1 (stereo unspecified),-1.64,-0.19
Clc1ccccc1-c1nn2c(-c3ccccc3)nnc2s1,0.18,0.39
Cc1noc(/C=C/c2cccs2)c1S(=O)(=O)N1CCCC(C(=O)NCc2ccco2)C1 (stereo unspecified),-0.8,-0.07

# Next section (2 carried over from the part before).
smiles,CDC25B CDK2 inh,TAR Tat displ
Clc1ccccc1-c1nn2c(-c3ccccc3)nnc2s1,0.18,0.39
Cc1noc(/C=C/c2cccs2)c1S(=O)(=O)N1CCCC(C(=O)NCc2ccco2)C1 (stereo unspecified),-0.8,-0.07
Nc1ccn([C@@H]2O[C@H](CO)[C@@H](O)[C@@H]2O)c(=O)n1,-0.99,/
CCc1cc2c(=O)c(-c3nc4ccccc4n3C)c(CCC(=O)O)oc2cc1O,-2.09,/
COc1ccc(N2C(=O)CSC2c2ccncc2)cc1 (stereo unspecified),-0.57,/
Cc1ccc(N2C(=O)C3C4C=CC(CC4)C3C2=O)cc1Cl (stereo unspecified),-0.02,0.12
CCc1ccc(NC(=O)Nc2c(C)nc3nc[nH]n3c2=O)cc1,/,-0.03
Cc1cc(C)c2c(n1)sc1c(=O)n(C(C)(C)C)nnc12,-2.37,-0.76
CCCCCC(=O)N1CC2(C)CN(C(=O)CCCCC)CC(C)(C1)C2=O,-0.61,-0.2
Cc1cc(OCC(=O)C(C)(C)C)c2c(-c3ccccc3)cc(=O)oc2c1,0.85,/
Cc1c(C(=O)C(=O)N2CCCC(C)C2)c2ccccc2n1C (stereo unspecified),-2.39,/
O=c1oc2c3ccccc3c3oc(=O)sc3c2s1,-2.09,/
CC(C)CCNC(=O)CCCc1nnc2n(C)c(=O)c3sccc3n12,/,-0.4
Cc1nc2scc(C)n2c(=O)c1S(=O)(=O)Nc1ccc(N2CCN(C(=O)C(C)C)CC2)cc1,0.3,0.78
CCc1ccc2oc(C(=O)Nc3sc4c(c3C(=O)NCC3CCCO3)CCC4)cc(=O)c2c1 (stereo unspecified),-1.99,-1.11
CC(C)(C)c1ccc(-c2cc(=O)c3ccc(NC(=O)c4cccnc4)cc3o2)cc1,/,-3.64
CCC(C)NS(=O)(=O)c1c(C(=O)N2CCC(C)CC2)c(C)n(C)c1C (stereo unspecified),/,1
COc1ccc(NC(=O)c2sc3nc4c(cc3c2N)CCCCCC4)cc1,-0.45,/
Cc1ccc(NCC(O)Cn2nnnc2-c2ccccc2)cc1Cl (stereo unspecified),-0.41,2.47
COc1ccc(N2CCN(c3cc(C)nc4nc(-c5ccco5)nn34)CC2)cc1,/,0.9
COc1ccc(OC)c(C2Nc3ccccc3NC3=C2C(=O)CC(c2ccccc2)C3)c1 (stereo unspecified),-0.37,-2
COCCNC(=O)c1[nH]nc2c1CCc1cc(OC)ccc1-2,/,1.26
Cc1cc(C(=O)O/N=C(\N)c2ccc(C(C)(C)C)cc2)no1,-2.53,/
COc1cc(C2c3c(oc4ccc(Br)cc4c3=O)C(=O)N2Cc2ccccc2)ccc1O (stereo unspecified),-0.47,-0.06
Cc1nc2c(c(C)c1CCC(=O)NCCN1CCCCC1)c(=O)n(C)c(=O)n2C,-0.45,0.73
O=C(COc1ccc(F)cc1)Nc1c(C(=O)N2CCC(N3CCCCC3)CC2)oc2ccccc12,/,0.98
COC(=O)c1sc2cccc(F)c2c1S(=O)(=O)Nc1cccc(OC)c1,/,1.79
CC1CCN([C@H]2CS(=O)(=O)C[C@@H]2S(=O)(=O)c2ccc(F)cc2)CC1,-0.91,1.45
CCCOc1ccc(C2C(C(=O)OC(C)C)=C(C)NC3=C2C(=O)CCC3)cc1OC (stereo unspecified),-0.79,0.09
CCn1cc(S(=O)(=O)c2ccc(Cl)cc2)c(=O)c2cc(C)ccc21,-1.3,2.33
Cc1cc(-n2nnc3ccccc32)nc(C)n1,-1.19,14.3*
Cc1nc(-c2ccccn2)nc(N2CCOCC2)c1Cl,0.85,/

# Taken from above:
# Cc1ccc(NCC(O)Cn2nnnc2-c2ccccc2)cc1Cl (stereo unspecified) in TAR Tat displ: 2.47
# CC(C)COC(=O)NC(C)(C)COC(=O)Nc1ccc(Cl)cc1 in TAR Tat displ: 0.25
# CCOC(=O)c1cc(C#N)c(Sc2n[nH]c(C(C)(C)C)n2)nc1C(F)(F)F in CDC25B CDK2 inh: -1.74
# Cc1ccc(S(=O)(=O)OC2CO[C@H]3[C@@H]2OC[C@H]3OS(=O)(=O)c2ccc(C)cc2)cc1 (stereo partly specified) in CDC25B CDK2 inh: -0.93
# C=CCNc1oc(-c2ccc(COc3cccc(C)c3)o2)nc1C#N in TAR Tat displ: 0.24

# Continuation:
smiles,CDC25B CDK2 inh,TAR Tat displ
Cn1c2ccccc2c2nnc(SCC(=O)Nc3nc4c(s3)CCCC4)nc21,-1.07,/
CC(C)(C)OC(=O)N1CCN(c2ccc(NS(=O)(=O)c3ccc(Cl)cc3)cn2)CC1,-0.05,/
O=C1NC(=O)c2cc([N+](=O)[O-])c(Sc3c(Cl)cccc3Cl)cc21,0.13,/
Cc1ccc2ncc(C(=O)NCC(C)C)c(=O)n2c1,-1.91,0.02
CC1=C(C(=O)OCc2ccccc2)C(c2cc3c(cc2Cl)OCO3)CC(=O)N1 (stereo unspecified),0.96,2.43
Fc1ccc(OCc2nn3c(Cn4nnc5ccccc54)nnc3s2)cc1,-1.46,1.5
CCN(C(=O)c1coc(=O)c2ccccc12)c1cccc(C(F)(F)F)c1,0.26,/
CC1Cc2cc(S(=O)(=O)N3CCc4ccccc43)ccc2N1C(=O)C1CCC1 (stereo unspecified),/,0.17
Cc1noc(NS(=O)(=O)c2ccc(NC(=O)c3cnc4scc(C)n4c3=O)cc2)c1C,-0.49,/
Cn1c(C(=O)O)cc(=O)n(C)c1=O,0.35,1.44
CC1(C)CC(=O)c2sc3nc(-c4ccc(Cl)cc4)cn3c2C1,-1.84,1.97
O=C(O)c1cc(N2C(=O)C3CCCCC3C2=O)ccc1Cl (stereo unspecified),/,1.03
CC(=O)N1N=C(c2ccccc2)CC1c1cc2cc3c(cc2nc1Cl)OCO3 (stereo unspecified),-0.86,/
CN(C)c1ccc(C2/C(=C(\O)c3ccc(F)cc3)C(=O)C(=O)N2Cc2cccnc2)cc1 (stereo unspecified),-2.36,-0.33
Nc1c(Cl)ncnc1NCCCn1ccnc1,0.67,1.11
O=S(=O)(c1ccc(-n2cnnn2)cc1)N1CC=CCC1,-0.82,1.46
CCN1C(=O)c2ccccc2Sc2ccc(NC(=O)N3CCCC3)cc21,0.62,-0.46
Fc1ccc(-c2cc(-c3nc(-c4cccc(Cl)c4)no3)[nH]n2)cc1,/,0.86
c1ccc2sc(Cc3nc4ccccc4s3)nc2c1,-1.1,/
CCc1ccc(N2C(=O)N(Cc3ccc(C)cc3)C3CS(=O)(=O)CC32)cc1 (stereo unspecified),/,-1.2
COc1c2ccoc2cc2oc(C)cc(=O)c12,/,2.37
CCCC(=O)Nc1c(C2=CCCCC2)c(C)nn1C,-1.88,-0.88
Cc1ccc2c(CC(=O)N(Cc3ccc(Cl)cc3)C3CCS(=O)(=O)C3)coc2c1 (stereo unspecified),-3.83,1.16
O=C(CC(=O)Nc1ccccn1)Nc1ccc2nc3n(c(=O)c2c1)CCCCC3,-1.27,1.16
CCOc1ccc(S(=O)(=O)N2CCCCC2)c2ccccc12,-1.05,0.5
O=C(C1CCN(S(=O)(=O)c2cccnc2)CC1)N1CCN(c2ccc(Cl)cc2)CC1,-2.26,/
CCN(CC)CCNc1nc2c(c(=O)n(C)c(=O)n2C)n1Cc1ccc(F)cc1,-2.76,2.44
Cc1ccc(-n2c(=O)[nH]c3c(C(N)=O)nc(-c4ccccc4)nc32)cc1C,/,1.13
Cc1cc(O)c(C(c2ccncc2)c2c(O)cc(C)oc2=O)c(=O)o1,-0.22,/
COC(=O)c1ccc(Cn2cnc3c2c(=O)n(C)c(=O)n3C)cc1,-2.23,/

# Carrying on.
smiles,CDC25B CDK2 inh,TAR Tat displ
Cc1c(NC(=O)c2ccc(Br)cc2)c(-n2cnnc2)nn1C,-0.89,-0.44
C=CCOc1ccc(Cl)cc1C1SC(NC(C)=O)=NN1C(C)=O (stereo unspecified),-0.41,1.04
O=C(Cn1cnc(S(=O)(=O)N2CCOCC2)c1)Nc1cccnc1,/,-0.87
CCCCCOC(=O)C1C2C=CC3(CN(c4ccc(C)cc4)C(=O)C13)O2 (stereo unspecified),-0.47,3.77
COc1ccc(-c2noc(NC3CCCCC3)n2)cc1OC,/,-0.21
CCCCN(C)C(=O)Cn1cnc2sc(C)c(S(=O)(=O)N3CCCCC3)c2c1=O,0.19,/
O=[N+]([O-])c1cccc(S(=O)(=O)N2CN(c3ccc4ccccc4c3)c3nc4ccccc4nc32)c1,2.31,/
COC(=O)Cn1cnc2c(nc3n2CCCCC3)c1=O,-0.37,-0.92
Cc1noc(C)c1S(=O)(=O)NC1CCN(Cc2ccccc2)CC1,-1.81,/
COc1cc2c(cc1OC)C(COc1ccc(F)cc1)N(C(=O)c1ccccc1)CC2 (stereo unspecified),-1.91,/
CSc1[nH]c(=O)[nH]c(=O)c1C#N,-0.54,/
CN(c1ccccc1)S(=O)(=O)c1ccc(N2CCCCS2(=O)=O)cc1,/,0.96
Cc1ccc(CSc2nc3c(c(=O)[nH]2)C(c2ccc(F)cc2F)CC(=O)N3)cc1 (stereo unspecified),-0.2,2.03
Cc1cccc2nc(-c3ccco3)c(Nc3ccc(F)cc3)n12,-0.21,/
Cc1cccc2[nH]c(-c3ccc(NC(=O)c4ccc(N)cc4)cc3)nc12,-0.54,/
Cn1cc(NC(=O)N2CCC(c3ccccc3)C2)c2ccccc2c1=O (stereo unspecified),/,-0.41
O=C1c2cccc3c(N4CCCC4)ccc(c23)C(=O)N1c1ccccc1,-1.07,-8.05
COc1ccc(-n2nnc(-c3nc(-c4ccc(F)cc4)no3)c2N)cc1,/,0.08
CS(=O)(=O)N1CCCc2ccc(NS(=O)(=O)c3ccc(F)cc3)cc21,/,-0.6
CC(C)NC(=O)Nc1cn(C)c(=O)c2ccccc12,/,2.37
CCC(C)n1c(=O)c2sccc2n2c(CCCC(=O)Nc3ccc(F)cc3)nnc12 (stereo unspecified),/,1.36
Fc1cccc(CN2CCc3nc(N4CCN(c5ccccc5F)CC4)ncc3C2)c1,/,0.73
CCC(C(=O)NCc1ccc(Cl)cc1)n1nc(C)n2c(cc3sccc32)c1=O (stereo unspecified),-4.14,/
OCc1nc2ccccc2n1Cc1ccccc1Cl,0.34,0.02
Cc1ccc(-c2cn3cccc(C)c3n2)cc1NS(=O)(=O)c1ccc(Cl)cc1,-1.71,-0.35

# Shown field by field: part of the list above
> Cc1noc(C)c1S(=O)(=O)NC1CCN(Cc2ccccc2)CC1
  CDC25B CDK2 inh: -1.81
  TAR Tat displ: /
> COc1cc2c(cc1OC)C(COc1ccc(F)cc1)N(C(=O)c1ccccc1)CC2 (stereo unspecified)
  CDC25B CDK2 inh: -1.91
  TAR Tat displ: /
